# Screening results (PubChem BioAssay)
# PINK1 expr mod: changes PINK1 expression | PINK1 immunofluorescence, high-content cytometry, 24 h | Potency, µM (highest dose often 76.6 µM), without a hit: top-dose activation (PINK1 increase), actives largely listed as activators | 410,000 tested, 0.2% active; active = well fitted activation curve with a large enough effect; inconclusive = small, poorly fitted or top-dose-only effect; inactive = flat fitted curve, though single readings scatter; cell line not stated here;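 also: potency is read from the fitted curve at half-maximal effect; % of control where 0% means no effect; nearly all actives have a fitted effect of over 65% in size; a mitochondrial uncoupler was the plate control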
#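 PINK1 protein level read as immunofluorescence by microplate cytometer in a fixed, stained stable cell line after 24 h exposure to five compound concentrations, with CCCP as control.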
# Six1-Eya2 blk: blocks human Six1 binding to Eya2. Q15475+O00167. AlphaScreen GST-Six1/His-Eya2 binding, biochemical; hits give low values; control for the full effect not named in the record. activity change, % (no concentration beside the values). 360,000 tested, 0.56% active. AID 651725; in the data active = activity change below about -65%; inconclusive = about -30% to -65%; inactive = above about -30%; also: % is scaled to controls: 0 for no effect and ±100 for the full control effect; compound concentration not given in the record
# Target sequence (O00167 whole entry, looked up): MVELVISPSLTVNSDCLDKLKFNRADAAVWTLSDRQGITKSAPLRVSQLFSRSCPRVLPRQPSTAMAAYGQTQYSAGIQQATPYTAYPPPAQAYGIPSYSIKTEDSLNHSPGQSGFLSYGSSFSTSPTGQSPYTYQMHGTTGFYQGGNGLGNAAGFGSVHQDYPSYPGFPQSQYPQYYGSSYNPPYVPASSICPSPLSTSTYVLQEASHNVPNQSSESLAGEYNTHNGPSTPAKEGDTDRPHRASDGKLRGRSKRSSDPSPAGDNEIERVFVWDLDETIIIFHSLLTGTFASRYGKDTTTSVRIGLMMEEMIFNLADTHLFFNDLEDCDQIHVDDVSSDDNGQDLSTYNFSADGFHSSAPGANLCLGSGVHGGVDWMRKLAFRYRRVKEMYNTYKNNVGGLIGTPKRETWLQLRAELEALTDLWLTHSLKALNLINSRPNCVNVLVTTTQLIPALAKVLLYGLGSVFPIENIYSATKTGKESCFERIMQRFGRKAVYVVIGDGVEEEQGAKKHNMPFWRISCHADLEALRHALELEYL
# Target sequence (Q15475 whole entry, looked up): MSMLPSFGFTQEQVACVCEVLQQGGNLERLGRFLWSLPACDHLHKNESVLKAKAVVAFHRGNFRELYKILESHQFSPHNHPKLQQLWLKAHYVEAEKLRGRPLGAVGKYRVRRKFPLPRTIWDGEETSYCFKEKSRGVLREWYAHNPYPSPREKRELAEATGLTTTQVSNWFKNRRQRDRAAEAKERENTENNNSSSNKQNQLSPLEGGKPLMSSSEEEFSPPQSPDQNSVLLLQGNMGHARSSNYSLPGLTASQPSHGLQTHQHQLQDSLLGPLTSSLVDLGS
#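 Six1/Eya2 binding was read as AlphaScreen signal after compounds were pinned into GST-Six1 plus His-tagged Eya2 (5X stock 250/500 nM) in pH 8.0 Tris/NaCl/TCEP buffer, beads added, then incubated 1 h, 37 C, dark.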
# D2 agonist: agonists of human D2 dopamine receptor (beta-arrestin). P14416. DiscoveRx PathHunter D2 beta-arrestin, luminescence, 90 min; 100% = 57 uM dopamine signal. activation, % (test concentration not listed). 360,000 tested, 0.084% active. AID 624465; in the data active = activation above about 40%; inconclusive = about 15% to 40%; inactive = below about 15%; also: compound concentration not given in the record; the text of the record calls up to 30% inactive
#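 Agonist mode: compounds alone added to overnight-plated D2 PathHunter cells for 90 min at 37 C, with 57 uM final dopamine (EC100) defining full response. Beta-arrestin recruitment detected by chemiluminescent reagent, read after 1 h at ambient temperature.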
# TRPV1 potentiator: human TRPV1 potentiation | Q8NER1 | TRPV1-expressing cells, Fluo-8 calcium influx, capsaicin EC20 potentiation; host cell line not named in the record; control for the full effect not named in the record | potentiation, % at 8.33 µM | 320,000 tested, 0.02% active; active means potentiation above 80%; inconclusive means 30% to 80%; inactive means below 30%; also: 0% is about no effect
#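 TRPV1-expressing cells were cultured overnight at 35.5C and loaded with Fluo-8 calcium dye for 40 to 90 min at room temperature. After a 10 s baseline, compound was added and calcium influx was read kinetically for 3 min (ex 480/em 520 nm).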
# CtBP-E1A inh: blocks the CtBP interaction with E1A. AlphaScreen GST-E1A/His-CtBP binding, 1536-well; hits give low values; control for the full effect not named in the record. activity change, % (no concentration beside the values). 340,000 tested, 0.49% active; in the data active means activity change below about -65%; inconclusive means about -30% to -65%; inactive means above about -30%; also: % is scaled to controls: 0 for no effect and ±100 for the full control effect; compound concentration not given in the record
#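 GST-E1A and His-tagged CtBP (125 nM each as 5X stock) were preincubated with pin-transferred compound for 2 h at 37 °C in the dark, then glutathione donor and nickel acceptor beads were added for 1 h before AlphaScreen reading.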
# Sfp inh: inhibitors of Bacillus subtilis Sfp phosphopantetheinyl transferase; Q9F4F7; Biochemical Sfp PPTase activity, qHTS; Potency, µM, for the others: max response, negative = inhibition, most hits filed as inhibitors; 310,000 tested, 3.5% active; active = well fitted inhibition curve with a large enough effect; inconclusive = small, poorly fitted or top-dose-only effect, or another doubt; inactive = no such curve, though single readings can be large or run the other way;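 also: the enzyme is Sfp with the accession as filed and its product quenches rhodamine fluorescence; potency is read from the fitted curve at half-maximal effect; 0% = enzyme reaction without inhibitor and -100% = no enzyme wells; top concentration of the series not given in the record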
#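 After 15 min at room temperature with compound, 15 nM Sfp received 5 uM rhodamine-CoA plus 12.5 uM BHQ-2-ybbR (50 mM Hepes pH 7.6, 10 mM MgCl2). Rate came from the fluorescence difference over 30 min, ex 525/em 598 nm.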
# D2 PAM: potentiates the human D2 dopamine receptor allosterically; DiscoveRx D2 beta-arrestin cells, luminescence, 90 min; 100% = 57 uM dopamine signal; potentiation, % (no concentration beside the values); 360,000 tested, 0.23% active; AID 624464; active = potentiation of 50% or more; inconclusive = 30% to 50%; inactive = 30% or less;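 also: compound concentration not given in the record; tested on top of an EC20 dose of dopamine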
#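 D2 cells co-treated with compound plus 50 nM dopamine (EC20) for 90 min at 37 deg C to detect potentiation. Beta-arrestin recruitment was read as enzyme-fragment luminescence after 1 h at ambient temperature. Full response was set by 57 uM dopamine.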
# Numbers without * were called inactive; u = inconclusive; x = no result given; [ ] = another dose, or the depositor's remark.
SMILES,PINK1 expr mod,Six1-Eya2 blk,D2 agonist,TRPV1 potentiator,CtBP-E1A inh,Sfp inh,D2 PAM
COc1ccc(CCNC(=O)COC(=O)c2ccc(N3CCCC3=O)cc2)cc1OC,0.8%,3,2.2,1,17,u,3
CCOc1cc(S(=O)(=O)NC2CC(C)(C)NC(C)(C)C2)ccc1F,6.2%[38.3 µM],5,-2.6,-2,3,7%,-9
COC(=O)C[C@H]1c2cc(C(F)(F)F)ccc2S(=O)(=O)N1C1CCCC1,0.7%,-17,-2.8,x,-4,x,-5
Cc1cc2oc(C(=O)Nc3nonc3C)c(C)c2cc1C,9.8%,5,-1.7,-13,x,7%,-3
COc1cccc(CN(C)C(=O)CCNC(=O)c2ccc(Br)cc2)c1,1.9%,4,-3.1,-12,-2,-7%,-13
CC(C(=O)NCc1ccco1)n1cc(C(=O)c2ccco2)c2ccccc21 (stereo not given),-0.3%,-16,-3.6,9,-6,2%,-7
Cc1noc(C)c1COc1ccccc1C(=O)Nc1ccc(C(N)=O)cc1,-1.3%,0,-4.4,7,-22,x,-3
O=C(Nc1ccc(Cl)cc1F)C1CCCN(C2=NS(=O)(=O)c3ccccc32)C1 (stereo not given),3.3%,-7,-1.3,-8,-22,x,u
CC(C(=O)NCc1ccc(F)cc1)c1ccc([N+](=O)[O-])cc1 (stereo not given),3.0%,-7,-5.6,-2,x,-6%,-3
COc1ccc(NC(=S)NC(C)c2ccncc2)cc1OC (stereo not given),-1.9%,1,-2.1,1,0,4%,3
CC(=O)c1cccc(NC(=O)c2ccccc2OCc2ccc(F)cc2)c1,13%,0,-0.3,-1,5,1%,-4
CCCCNC(=O)c1cc(S(=O)(=O)N2CCCCC2)oc1C,0.0%,1,3.4,-14,0,13%,-5

# As entered above.
# For Sfp inh, CC(C(=O)NCc1ccco1)n1cc(C(=O)c2ccco2)c2ccccc21 (stereo not given) has 2%
# For D2 agonist, Cc1noc(C)c1COc1ccccc1C(=O)Nc1ccc(C(N)=O)cc1 has -4.4

# Next part.
SMILES,PINK1 expr mod,Six1-Eya2 blk,D2 agonist,TRPV1 potentiator,CtBP-E1A inh,Sfp inh,D2 PAM
COc1cccc2c(C)nc(Nc3nc(CSc4nnc(C)s4)cc(=O)[nH]3)nc12,-0.6%,-9,2.0,x,-10,7%,-7
C/C(N)=C(/C#N)C(=O)CSc1nc2ccccc2c(=O)n1-c1ccccc1C,-1.5%,2,1.5,-10,x,-15%,2
CC(=O)NC12CC3CC(C1)CC(C(=O)Nc1cccc(S(=O)(=O)N4CCCCCC4)c1)(C3)C2,3.4%,0,0.7,x,-2,x,-4
CC(=O)OCc1c(-c2ccccc2)c2cc([N+](=O)[O-])ccc2n1C,-0.1%,-22,-3.5,-12,-8,-8%,0
O=C(NCCc1ccccc1)C(=O)NCC1CCCN1S(=O)(=O)c1ccccc1 (stereo not given),3.3%,19,-4.0,14,0,x,-19
CC(C)(C)n1nnnc1C(c1cccnc1)N1CCN(c2ccccc2F)CC1 (stereo not given),-2.0%,7,0.8,24,6,19%,0
COc1ccc(-n2nc(C(=O)NCC(=O)N3CCC(C(N)=O)CC3)c3ccccc3c2=O)cc1OC,-1.6%,1,0.3,12,6,32%[activator],-2
COC(=O)c1cc(OC)c(OC)cc1NC(=O)CN1C(=O)c2ccccc2C1=O,-1.1%[38.3 µM],0,-1.7,8,1,16%,-19
Cc1cc(C)nc(NS(=O)(=O)c2ccc(NC(=O)NC3CCCCC3)cc2)n1,1.2%[38.3 µM],4,-0.4,-37,-1,15%,8
CC1CN(C(=O)CN(C)S(=O)(=O)c2ccc3ccccc3c2)CC(C)O1 (stereo not given),-0.2%,2,0.1,25,x,4%,5
Cc1ccc(-c2noc(CSc3nnc(-c4ccncc4)n3-c3ccc(C)cc3)n2)cc1,3.5%[38.3 µM],-9,-2.0,11,-7,-19%,-8
COc1cc(Br)cc(/C=N/NC(=O)Cc2ccc(C(F)(F)F)cc2[N+](=O)[O-])c1O,-1.6%,15,-1.3,-30,-3,u,-1
CNC(=O)CSc1n[nH]c(-c2cc(Cl)ccc2OC)n1,2.3%,-2,-1.8,12,-5,20%,-7
COc1ccc(-c2cc(CNC(=O)CCl)on2)cc1,4.0%,-6,-3.6,1,-5,20%,-7
O=c1c2ccccc2c(-c2ccc(Br)cc2)nn1Cc1ccccc1,8.5%,-2,-1.5,-1,0,u,13
O=C(CN1CCN(c2ncccn2)CC1)NCCC1=CCCCC1,1.5%[38.3 µM],3,5.0,-2,29,u,-21
CCOCCCNC(=O)CSCc1nc(-c2ccc(SC)cc2)oc1C,-2.5%,9,-3.4,10,5,0%,-2
COc1ccc(CN2CCN(Cc3cccc(F)c3)CC2)cc1OC,0.6%,3,-4.9,2,-1,u,-15
COc1ccc(CC(=O)Nc2ccc(-c3nnc(-c4ccccc4)o3)cc2)cc1,4.1%,3,-0.5,8,-6,-5%,4
CC(C)c1ccc(C2/C(=C(/O)c3ccccc3)C(=O)C(=O)N2CCCN2CCOCC2)cc1 (stereo not given),1.6%,6,-3.2,4,0,11%,-2
Cc1noc(C)c1COC(=O)/C=C/c1ccc(Cl)cc1,-2.3%,5,9.3,2,x,-17%,-10
COC(=O)C1CCN(C(c2cccs2)c2sc3nc(C)nn3c2O)CC1 (stereo not given),-1.3%,3,-1.8,7,-8,25%,-12
O=C(Oc1ccccc1)Oc1ccc2c(c1)oc(=O)c1ccccc12,-1.5%,-14,0.5,21,-21,10%,-18
O=C1CC(NS(=O)(=O)c2cc(F)ccc2F)CN1c1cccc(F)c1 (stereo not given),2.4%,9,-2.1,0,3,x,2
CCOC(=O)C1CCCN(S(=O)(=O)c2ccc3c(c2)CC(C)N3C(=O)C2CC2)C1 (stereo not given),6.0%,0,-1.6,-6,-3,12%,-10
O=S1(=O)C=C[C@@H](CO)N1Cc1ccc(Br)cc1,2.1%,8,-3.3,x,1,x,-3
CC(CCc1ccccc1)NC(=O)C(Cc1ccccc1)NC(N)=O (stereo not given),-2.1%,-5,-4.6,5,0,19%,-7
CCC(C)NC(=O)c1ccc(N2CC3CC(C2)c2cccc(=O)n2C3)c(NC(=O)c2ccc(Br)o2)c1 (stereo not given),4.0%,5,-1.3,-5,2,5%,-8
COc1ccccc1-c1noc2c1C(=O)N(Cc1cn(Cc3ccccc3)nn1)CC2,0.7%,-20,3.1,x,-10,x,-1
Cn1cc(Br)c(C(=O)NN2C(=O)C3C4C=CC(C5CC45)C3C2=O)n1 (stereo not given),0.8%,1,-5.2,5,6,20%,-1
N/C(=N\OC(=O)c1cccc(Br)c1)c1ccccc1,15%[38.3 µM],19,11,-6,22,15%,u
CN1C(=O)NC(c2ccc(C(F)(F)F)cc2)C2=C1CC(C)(C)CC2=O (stereo not given),1.2%,7,-7.5,28,x,9%,-3
CCn1ncc(NC(=S)NCCc2ccc(OC)c(OC)c2)c1C(N)=O,-1.4%,16,-4.3,-6,-11,-8%,-18
CCCCC1(C)NC(=O)N(CC(=O)Nc2cc(S(=O)(=O)N3CCOCC3)ccc2Cl)C1=O (stereo not given),0.2%,-2,-1.1,-5,0,x,2
O=C(c1ccc(F)cc1)N1CCC(C(=O)N2CCN(Cc3ccc4c(c3)OCO4)CC2)CC1,-7.2%,2,-2.0,8,-16,x,-8
CC1(C)C(=O)Nc2ccccc2N1C(=O)COC(=O)CSc1ccc(F)cc1,-1.4%,16,-1.3,3,0,x,0
CCc1ccc(NC(=O)c2cnn(-c3ccccc3)c2C2CCNCC2)cc1,-1.5%,-2,-1.0,23,-2,-13%,-1
Cc1ccc(N(CC(=O)NCCSc2nc3ccccc3s2)S(=O)(=O)c2ccccc2)c(C)c1,-3.0%,-6,0.9,-18,-8,7%,16
O=c1ccsc2ccccc12,0.4%,8,-6.2,x,-16,x,-5

# Filtered by structure: the entries above containing fluorine.
SMILES,PINK1 expr mod,Six1-Eya2 blk,D2 agonist,TRPV1 potentiator,CtBP-E1A inh,Sfp inh,D2 PAM
CCOc1cc(S(=O)(=O)NC2CC(C)(C)NC(C)(C)C2)ccc1F,6.2%[38.3 µM],5,-2.6,-2,3,7%,-9
COC(=O)C[C@H]1c2cc(C(F)(F)F)ccc2S(=O)(=O)N1C1CCCC1,0.7%,-17,-2.8,x,-4,x,-5
O=C(Nc1ccc(Cl)cc1F)C1CCCN(C2=NS(=O)(=O)c3ccccc32)C1 (stereo not given),3.3%,-7,-1.3,-8,-22,x,u
CC(C(=O)NCc1ccc(F)cc1)c1ccc([N+](=O)[O-])cc1 (stereo not given),3.0%,-7,-5.6,-2,x,-6%,-3
CC(=O)c1cccc(NC(=O)c2ccccc2OCc2ccc(F)cc2)c1,13%,0,-0.3,-1,5,1%,-4
CC(C)(C)n1nnnc1C(c1cccnc1)N1CCN(c2ccccc2F)CC1 (stereo not given),-2.0%,7,0.8,24,6,19%,0
COc1cc(Br)cc(/C=N/NC(=O)Cc2ccc(C(F)(F)F)cc2[N+](=O)[O-])c1O,-1.6%,15,-1.3,-30,-3,u,-1
COc1ccc(CN2CCN(Cc3cccc(F)c3)CC2)cc1OC,0.6%,3,-4.9,2,-1,u,-15
O=C1CC(NS(=O)(=O)c2cc(F)ccc2F)CN1c1cccc(F)c1 (stereo not given),2.4%,9,-2.1,0,3,x,2
CN1C(=O)NC(c2ccc(C(F)(F)F)cc2)C2=C1CC(C)(C)CC2=O (stereo not given),1.2%,7,-7.5,28,x,9%,-3
O=C(c1ccc(F)cc1)N1CCC(C(=O)N2CCN(Cc3ccc4c(c3)OCO4)CC2)CC1,-7.2%,2,-2.0,8,-16,x,-8
CC1(C)C(=O)Nc2ccccc2N1C(=O)COC(=O)CSc1ccc(F)cc1,-1.4%,16,-1.3,3,0,x,0
